NPYLR7 ag: activates Aedes aegypti NPYLR7 receptor. HEK293T NPYLR7/Galpha15, GCaMP6s calcium fluorescence. activation, % at 10 µM. hit rate 0.15% among 270,000; in the data active = activation above about 40%;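 note: 0% = vehicle and 100% = reference agonist at the receptor; some compounds past the cut are filed as inactive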
NPYLR7 ag max-min: recorded beside NPYLR7 ag, whose call it bears; activation, %; measured here: Max-Min RFU normalised activation; some inactives read as strong as hits;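 span of the calcium signal over five minutes; 0% = vehicle and 100% = native peptide agonist; compound fluorescence can raise it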
Numbers without * were called inactive; & = joins results of further samples. The list is partial; count on the stated rates, not on these rows.

SMILES	NPYLR7 ag	NPYLR7 ag max-min
CCN(CC)C(=O)C1CCN(C(=O)CC2C(=O)NCCN2Cc2cccc(F)c2F)CC1 (stereo not drawn)	11	8
Cc1nnc(SCC(=O)c2cc(C)n(Cc3ccco3)c2C)s1	0	2
Cc1noc(C)c1C(=O)NC1CCCc2nc(-c3ccccc3)ncc21 (stereo not drawn)	19	8
O=C(NC1CCSc2ccccc21)c1cc(C2CC2)[nH]n1 (stereo not drawn)	-2	-3
Cc1nc(SCc2nc(-c3ccc(Cl)cc3)oc2C)[nH]c(=O)c1C	-7	-12
Cc1nc(N2CCN(C(=O)c3c[nH]c4ccccc34)CC2)cc(-n2cccn2)n1	-8	-12
Cc1csc(NC(=O)CSc2nc(-c3ccc(F)cc3)nc3c2c(=O)n(C)c(=O)n3C)n1	8	9
CNc1cncc(-c2ccc(C(=O)N3CCOCC3)cc2)n1	-2	-2
CC=Cc1cc(C(=O)NNC(=O)CSc2ccc(Cl)cc2)cc(OC)c1OC	1	4
COc1ccc(SCCC(=O)N2CCC3(CC2)CCN(Cc2ccccc2)C3=O)cc1	7	9
COc1ccc(CCC(=O)NCCc2csc3nc(-c4ccc(OC)cc4)nn23)cc1	5	3
Cc1nc2cc(OCc3cc(C(=O)NCCC4=CCCCC4)no3)ccc2s1	3	0
CC(C)CN(Cc1ccc(OS(C)(=O)=O)cc1)C(=O)c1ccco1	-8	-7
O=C(CSc1ncnc2sc3c(c12)CCC3)NC1CCCCC1	-5	6
CN(C)C=Nc1nc2ccccc2nc1N1CCOCC1	23	11
CS(=O)(=O)Oc1ccc(/C=C2/C(=N)N3N=C(Cc4ccccc4)SC3=NC2=O)cc1Cl	0	-2
OC(CN1CCOCC1)CN(Cc1c(-c2ccc(F)cc2)noc1N1CCOCC1)CC1CCCO1 (stereo not drawn)	14	15
COCCn1c(C)cc(O)c(C(c2ccc(F)cc2)N2CCN(c3ccccc3)CC2)c1=O (stereo not drawn)	4	-1
CC1(C)O[C@@H]2C[C@@](OCc3ccccc3C#N)(C(=O)NC3CC3)CC(OCc3cccc(OC(F)(F)F)c3)[C@@H]2O1 (stereo partly drawn)	5	13
CC(C)(O)C#Cc1ccc(C(=O)NCc2csc(-c3ccccc3)n2)o1	11	7
O=C(CN(Cc1ccco1)C(=O)C=Cc1ccco1)Nc1ccccc1	4	7
Cc1ccc(NCCCNC(=O)C2(O)Cc3ccccc3C2)nc1	-3	-3
Nc1ccc(-c2cc3c(cn2)ncn3-c2ccccc2)cn1	11	-1
Cc1ccc(CN(CCN2CCOCC2)CC(O)COCC(C)C)cc1 (stereo not drawn)	11	17

4 of the compounds above, in markdown:
| molecule | NPYLR7 ag | NPYLR7 ag max-min |
| --- | --- | --- |
| CN(C)C=Nc1nc2ccccc2nc1N1CCOCC1 | 23 | 11 |
| CS(=O)(=O)Oc1ccc(/C=C2/C(=N)N3N=C(Cc4ccccc4)SC3=NC2=O)cc1Cl | 0 | -2 |
| OC(CN1CCOCC1)CN(Cc1c(-c2ccc(F)cc2)noc1N1CCOCC1)CC1CCCO1 (stereo not drawn) | 14 | 15 |
| COCCn1c(C)cc(O)c(C(c2ccc(F)cc2)N2CCN(c3ccccc3)CC2)c1=O (stereo not drawn) | 4 | -1 |

As entered above.
Under NPYLR7 ag, `OC(CN1CCOCC1)CN(Cc1c(-c2ccc(F)cc2)noc1N1CCOCC1)CC1CCCO1` (stereo not drawn) is entered as 14
Under NPYLR7 ag max-min, `CN(C)C=Nc1nc2ccccc2nc1N1CCOCC1` is entered as 11
Under NPYLR7 ag max-min, `CC1(C)O[C@@H]2C[C@@](OCc3ccccc3C#N)(C(=O)NC3CC3)CC(OCc3cccc(OC(F)(F)F)c3)[C@@H]2O1` (stereo partly drawn) is entered as 13
Under NPYLR7 ag max-min, `Cc1ccc(CN(CCN2CCOCC2)CC(O)COCC(C)C)cc1` (stereo not drawn) is entered as 17
Under NPYLR7 ag max-min, `CC(C)CN(Cc1ccc(OS(C)(=O)=O)cc1)C(=O)c1ccco1` is entered as -7
Under NPYLR7 ag max-min, `COCCn1c(C)cc(O)c(C(c2ccc(F)cc2)N2CCN(c3ccccc3)CC2)c1=O` (stereo not drawn) is entered as -1

Other structures.
SMILES	NPYLR7 ag	NPYLR7 ag max-min
COc1ccccc1NC(=O)CCCn1c(=O)oc2cc([N+](=O)[O-])ccc21	12	15
CCCCCCCCCC(=O)Oc1ccc(-c2nc3cc(C)ccn3c2NC(C)(C)CC(C)(C)C)cc1OC	16	15
C=C(C)Cn1c(SCCCCC)nc2c1c(=O)[nH]c(=O)n2C	0	-2
Cn1cc(CN2CC(OCc3cccnc3)CN(Cc3cccc4ccccc34)CC2=O)cn1 (stereo not drawn)	6	4
CC[C@@]1(O)C(=O)OCc2c1cc1n(c2=O)Cc2cc3c(CN(C)C)c(O)ccc3nc2-1	88*	77*
CCc1c(C)nn(-c2ccc(C(=O)Nc3ccc(C)cc3)cc2)c1C	2	5
CCc1ccc(C2c3cccn3CCCN2Cc2ccccc2F)cc1 (stereo not drawn)	0	10
Cc1ccc(C2(O)CCN(Cc3cccnc3OCC(F)(F)F)CC2)nc1	6	-4
Cc1ccc(C(=O)NCC2CCN(Cc3nc4ccccc4[nH]3)C2)cn1 (stereo not drawn)	1	-3
CC1CN(CC(=O)NCCNC(=O)CN2CC(C)OC(C)C2)CC(C)O1 (stereo not drawn)	3	1
NC(=O)NC(=O)CCN1CCN(CC(F)(F)F)CC1	7	4
CCNC(=O)NC(=O)Cn1cnc2c1c(=O)n(C)c(=O)n2C	0	19
Cc1ccc(-n2ncc3c(=O)n(NC(=O)Cc4ccc(Cl)cc4)cnc32)cc1C	2	-3
COc1ccc(CN2[C@@H]3CC[C@H]2CN(C)C(=O)C3)cc1Cn1cccn1	1	-1
C=CCn1c(SCC(=O)N2CCNC2=O)nc2ccsc2c1=O	1	-1
CCOc1ccc(-c2nnn(CN3CCc4sccc4C3)n2)cc1	4	2
Cc1ccccc1-c1cnnc(N2CCCC(c3ccccc3)C2)n1 (stereo not drawn)	14&-2	14&-4
Cc1[nH]c2ccc(S(N)(=O)=O)cc2c1C	2	9
COc1cn2c(cc1=O)C(=O)N(CCNC(=O)c1cccc(C)c1)CC2	21	16
Cc1ccc(CN(C)C(=O)c2cc(F)ccc2Br)c(C)c1	-2	-5
COc1ccc(S(=O)(=O)N(CC(=O)NCC(O)c2ccccc2)c2ccc(C)cc2)cc1OC (stereo not drawn)	1	11
NC(=Nc1nc2c(c(=O)[nH]1)CCCC2)Nc1ccccc1Sc1ccccc1	3	-1
Cc1nnc(SCC(=O)N2CCc3c([nH]c4ccccc34)C2c2ccccc2C)s1 (stereo not drawn)	4	1
O=C(O)C1CC(=O)N(Cc2ccc3c(c2)OCO3)C(=Nc2ccc(Cl)cc2)S1 (stereo not drawn)	10	6
Fc1ccccc1-c1noc(-c2ccc(-c3cn[nH]c3)nc2)n1	4	-5
CCC(=O)N(CCC(c1ccccc1)C1CCOC(C)(C)C1)Cc1ccccc1 (stereo not drawn)	-7	-7
CCCC(C)(C)C(=O)N1CCC1(C)C(=O)NS(=O)(=O)c1cccc(Cl)c1 (stereo not drawn)	12	12
O=C1NC(=S)N/C1=C/c1ccc(-c2ccc(Cl)c(C(=O)O)c2)o1	1	9
CCN1CCN(c2c(CN(CCOC)C(=O)c3ccc(C(F)(F)F)cc3)c(C)nn2-c2ccccc2)CC1	-3	10
O=C(CCc1ccc(F)cc1)N1CCC(n2c(Cc3ccccc3)nc3ccccc32)CC1	22	18
Cc1cccc(N=Cc2nc(-c3ccccc3Br)oc2O)c1	-3	-5
O=C1CC(NS(=O)(=O)c2ccsc2)CN1CCCc1ccccc1 (stereo not drawn)	21	16
COc1ccccc1C(=O)NCC1Cc2cc(C(C)(C)C)ccc2O1 (stereo not drawn)	22	12
CCCN1CCN(Cc2ccc(C(=O)NC34CC5CC(CC(C5)C3)C4)c(=O)[nH]2)CC1	14	9
COc1ccc(CC2=NOC(C(=O)NCc3csc(-c4cccs4)n3)C2)cc1 (stereo not drawn)	15	-2
CCc1nnc(C2CCN(C(=O)Nc3cccs3)CC2)s1	-6	-5

Record cards (already shown). Order of screens: NPYLR7 ag | NPYLR7 ag max-min
Entry for Fc1ccccc1-c1noc(-c2ccc(-c3cn[nH]c3)nc2)n1 = 4 | -5
Entry for Cc1csc(NC(=O)CSc2nc(-c3ccc(F)cc3)nc3c2c(=O)n(C)c(=O)n3C)n1 = 8 | 9
Entry for Cc1ccc(CN(C)C(=O)c2cc(F)ccc2Br)c(C)c1 = -2 | -5
Entry for CC[C@@]1(O)C(=O)OCc2c1cc1n(c2=O)Cc2cc3c(CN(C)C)c(O)ccc3nc2-1 = 88* | 77*
Entry for Cn1cc(CN2CC(OCc3cccnc3)CN(Cc3cccc4ccccc34)CC2=O)cn1 (stereo not drawn) = 6 | 4

More compounds follow.
SMILES	NPYLR7 ag	NPYLR7 ag max-min
COCCN(Cc1nnc(-c2cccs2)o1)C(=O)COc1ccc(Br)cc1	-1	-2
CC(C)n1cnnc1CN(C)C(=O)C1CC2(CCNCC2)CN1 (stereo not drawn)	21	8
COc1ccc(C(NC(=O)C2CCN(CCOc3ccccc3)CC2)c2ccccc2C)cn1 (stereo not drawn)	2	-3
Cc1ncc(CN(C)C(C)C(=O)OC(C)(C)C)s1 (stereo not drawn)	4	1
Cn1ccnc1C1CCCCN1C(=O)CCc1nnc(CCCc2ccccc2)o1 (stereo not drawn)	-2	-3
CCOC(=O)c1ccc(NC(=O)c2sc(NC(=O)c3cccc(Cl)c3)c(C(=O)OCC)c2C)cc1	12	11
CCOC(=O)C1=NNC(C(=O)c2ccccc2)C1c1ccc(Br)cc1 (stereo not drawn)	-12	-16
CC(C)=CCC/C(C)=C/C(=O)NC(c1ccc(S(C)(=O)=O)cc1)c1cccc(N(C)C)c1 (stereo not drawn)	-1	-5
COc1ccc(C(=O)NC(C(=O)N2CCCC2)C2CCN(C(=O)NC(C)C)CC2)cc1 (stereo not drawn)	7	6
O=C(CN(CCCN1CCOCC1)C(=O)Nc1ccc(Cl)cc1Cl)N(Cc1ccccc1)Cc1ccco1	5	4
CN(C)c1ccc(NC(=O)C2CCC2)cc1CN(CC1CCCO1)S(C)(=O)=O (stereo not drawn)	15	22
O=C1N=C(c2ccccc2)OC1=Cc1ccccc1	9	7
CCOC(=O)CCN1CCN(c2cc(-c3ccccc3)nc3ncnn23)CC1	19	10
O=C(NCC1Cc2cccc(F)c2O1)c1ccc(F)cc1 (stereo not drawn)	5	0
O=C(N=Nc1c(O)[nH]c2ccccc12)C(O)(c1ccccc1)c1ccccc1	4	2
O=C(C1CCC1)N(Cc1ccccc1Cl)CC1CC(c2cccc(F)c2)=NO1 (stereo not drawn)	18	28
COc1ccc(-c2n[nH]c(C)c2-c2ccccc2)c(O)c1C	1	7
CCOC(=O)c1c(NC(=O)c2ccc(S(=O)(=O)N(C)C)cc2)sc(C)c1C	-1	-5
COc1ccc(C23CC4CC(CC(C(=O)O)(C4)C2)C3)c(F)c1	-27&-2	-25&-2
Cc1ccc(-n2ncc3c(=O)n(NC(=O)Cc4ccc([N+](=O)[O-])cc4)cnc32)cc1C	4	1
O=C(CCC1CCCN(C(=O)c2n[nH]c3c2CCC3)C1)N1CCN(c2ccccn2)CC1 (stereo not drawn)	0	-2
COC(C(=O)Nc1ccnn1C1CCN(C(=O)c2cc(C)oc2C)CC1)c1ccccc1 (stereo not drawn)	21	8
O=C(CSc1nnc(SCC(=O)c2ccc[nH]2)s1)c1ccc[nH]1	7	13
COC(=O)c1ccc(NC(=O)CSc2ncnc3sc4c(c23)CCC4)cc1	2	4
CCC(=O)N1CCN(C(c2ccccc2)C(F)(F)F)CC1 (stereo not drawn)	5	5
Cc1cc(C)n(-c2nc(N(C)C)nc(N3CCOCC3)n2)n1	8	8
CC(=O)CCc1ccc(OC(C)C(=O)N2CCCC(N(C)C)C2)cc1 (stereo not drawn)	4	2
COCC(=O)Nc1cccc(-c2ccc(O)cc2)c1	3	1
CC1(C)C2CCC1(CS(=O)(=O)N1CCOC(c3ccc(F)cc3)C1)C(=O)C2 (stereo not drawn)	7	6
CC1CCCC(NC(=O)c2cncn2-c2cccc(-c3ccccc3C(F)(F)F)c2)C1C (stereo not drawn)	3	1

Source: PubChem (Fisher Drug Discovery Resource Center)
